Calb FLC: affects C. albicans growth with fluconazole | C. albicans CaCi-2 (fluconazole-resistant clinical isolate) + fluconazole, Alamar Blue growth, 48 h | growth inhibition, % (concentration not given with the values) | actives 0.57% (n = 300,000);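 active = most replicates above 75%; inconclusive = exactly half above 75%; inactive = most below 75%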;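 note: all wells also contain fluconazole at 8 µg/ml as a sub-toxic cotreatment; 0% = median of DMSO wells and 100% = median of geldanamycin control wells; wells of about 8 µL received 7.5 nL stock; the first replicate is given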
LANA-H2B inh: blocks KSHV LANA binding to histone H2A/H2B. Q9QR71. cell-free LANA-H2A/H2B peptide, fluorescence polarization. inhibition, % (test concentration not listed). actives 0.6% (n = 320,000); in the data active = inhibition mostly above about 10%, no sharp cut-off; inactive = mostly below about 6.7%;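 note: stock transfer was 7.5 nL into about 10 µL; 0% = median of vehicle wells and 100% = median of positive control wells; one replicate is shown; the record names a cut of 25% in any replicate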
Vif A3G: inhibitors of Vif binding to APOBEC3G peptide, primary screen, biochemical, TR-FRET, GST-Vif 1-94, biotin-A3G peptide, dose response retest (AID 1117319); TR-FRET GST-Vif / biotin-A3G peptide binding; higher % means a stronger effect; test concentration not given here; strong numbers were not always called active; inhibition, %, or IC50 in µM where a hit was titrated; actives 0.57% (n = 260,000);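 active = above the screen mean plus three standard deviations and confirmed in dose response; inconclusive = results disagree or hit not tested in dose response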;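 note: Vif residues 1-94 fused to GST binding biotinylated APOBEC3G peptide 110-148; 0% = full assay without inhibitor and 100% = GST in place of GST-Vif; retest series ran down from 100 µM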
RanGTP-Impb inh: inhibitors of RanGTP-importin-beta interaction, primary screen, biochemical, FRET, CFP-Ran, YFP-importin-beta, homogeneous; cell-free CFP-Ran/YFP-importin-beta FRET ratio; inhibition, % (concentration not given with the values); actives 1.1% (n = 300,000); AID 2216;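 active = most replicates above 15%; inconclusive = exactly half above 15%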;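 note: 0% = DMSO wells and 100% = Ran loaded with GDP instead of GTP; wells of about 40 µL received 100 nL stock; the first replicate is given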
ALR H2O2 inh: blocks human ALR sulfhydryl oxidase activity | inhibition, % (concentration not given with the values) | purified ALR, DTT oxidation, H2O2 HRP-luminol luminescence | actives 3.8% (n = 290,000) | P55789;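 active = mean and each replicate at 75% or more; inconclusive = only one of the two met; inactive = neither met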;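 note: stock transfer was 7.5 nL into about 7.5 µL; 0% = neutral wells and 100% = wells with inactivated enzyme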
Target sequence (P55789 whole entry, looked up): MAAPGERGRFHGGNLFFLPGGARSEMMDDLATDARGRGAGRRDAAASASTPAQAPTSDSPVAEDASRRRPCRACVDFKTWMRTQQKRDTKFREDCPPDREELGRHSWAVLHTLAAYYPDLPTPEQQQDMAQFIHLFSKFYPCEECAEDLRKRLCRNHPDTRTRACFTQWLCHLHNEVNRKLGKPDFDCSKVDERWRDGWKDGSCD
HNF4A DNA FP: change in binding of human HNF4 alpha to DNA. P41235. HNF4a-FITC DNA binding, fluorescence polarization, 1 h. activity change, % at 10 µM. actives 0.3% (n = 360,000). AID 1224865; in the data active = activity change above about 30%, passing the limit was not always enough;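 note: controls were the assay level and a saturating level of protein; the project sought stronger binding though the title names inhibitors; some compounds called inactive have numbers as strong as hits; positive values seem to mean higher polarization but the record does not say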
Target sequence (P41235 whole entry, looked up): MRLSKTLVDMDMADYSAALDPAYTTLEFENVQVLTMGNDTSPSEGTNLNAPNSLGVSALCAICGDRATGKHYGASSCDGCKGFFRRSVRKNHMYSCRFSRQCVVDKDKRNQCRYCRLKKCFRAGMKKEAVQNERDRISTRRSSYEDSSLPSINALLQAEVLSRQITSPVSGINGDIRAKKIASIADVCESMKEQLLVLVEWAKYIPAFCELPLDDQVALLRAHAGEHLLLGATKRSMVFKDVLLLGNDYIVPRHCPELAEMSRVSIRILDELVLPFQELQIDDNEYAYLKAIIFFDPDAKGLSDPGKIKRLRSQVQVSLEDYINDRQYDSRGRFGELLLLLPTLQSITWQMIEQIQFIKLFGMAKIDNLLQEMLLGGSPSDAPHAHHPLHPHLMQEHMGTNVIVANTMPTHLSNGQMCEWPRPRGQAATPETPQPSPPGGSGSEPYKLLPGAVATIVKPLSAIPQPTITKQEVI
Beta2AR agonist: activates human beta-2 adrenergic receptor causing internalization; P07550; Am2.2-beta2AR cells, FAP receptor internalization, flow cytometry; reference of the scale not given here; response, % (concentration not given with the values); actives 0.43% (n = 340,000);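 active = response above a set limit, near 3 SD of response in nonfluorescent compounds, cut at about 42% in these data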;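 note: stock transfer was 100 nL into about 11 µL; a reference agonist was the positive control; negative values mostly stem from fluorescent compounds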
Target sequence (P07550 whole entry, looked up): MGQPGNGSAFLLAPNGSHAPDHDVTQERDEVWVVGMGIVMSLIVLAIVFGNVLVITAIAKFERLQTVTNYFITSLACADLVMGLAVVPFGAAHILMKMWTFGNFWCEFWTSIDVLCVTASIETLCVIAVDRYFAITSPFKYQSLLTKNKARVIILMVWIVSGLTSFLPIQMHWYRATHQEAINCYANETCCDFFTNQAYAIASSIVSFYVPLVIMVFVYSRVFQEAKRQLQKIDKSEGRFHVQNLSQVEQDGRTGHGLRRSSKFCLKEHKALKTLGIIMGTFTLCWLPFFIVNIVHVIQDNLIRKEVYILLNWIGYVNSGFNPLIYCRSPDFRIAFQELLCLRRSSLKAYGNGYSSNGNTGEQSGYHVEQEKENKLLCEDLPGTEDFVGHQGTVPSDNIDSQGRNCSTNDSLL
* hit, by the source's call.

Results for COc1cccc(OC)c1C(=O)Nc1sc2c(c1C#N)CCC2 ?
Calb FLC: 0; LANA-H2B inh: 2.3; RanGTP-Impb inh: 2.4; ALR H2O2 inh: 0; HNF4A DNA FP: -3.2; Beta2AR agonist: 4

Results for O=C(CN1CCc2ccccc2C1)Nc1ccccc1Cl ?
Calb FLC: -4; LANA-H2B inh: 6.0; RanGTP-Impb inh: 1.1; ALR H2O2 inh: -2; HNF4A DNA FP: 4.8; Beta2AR agonist: 0

Results for COCc1cc(C)nc2sc(C(=O)NC3CCCCC3)c(N)c12 ?
Calb FLC: -11; LANA-H2B inh: -3.6; Vif A3G: -3%; RanGTP-Impb inh: 3.3; ALR H2O2 inh: 2; HNF4A DNA FP: -1.3; Beta2AR agonist: -21

Results for CCCCNC(=O)COc1ccccc1C(=O)c1cc(C#N)c(=O)n(CCOC)c1 ?
Calb FLC: -15; LANA-H2B inh: 3.5; RanGTP-Impb inh: 0.4; ALR H2O2 inh: -7; HNF4A DNA FP: 2.8; Beta2AR agonist: -10

What do the screens show for `COc1ccc(CCC(=O)NCCOc2ccc(C)cc2)cc1`?
Calb FLC: -6; LANA-H2B inh: 2.6; Vif A3G: -7%; RanGTP-Impb inh: 0.9; ALR H2O2 inh: 0; HNF4A DNA FP: 3.2; Beta2AR agonist: -21

Results for Cc1cccc(NC(=S)/N=C(\N)Nc2nc(C)c3cc(C)ccc3n2)c1 ?
Calb FLC: 0; LANA-H2B inh: -3.5; Vif A3G: -6%; RanGTP-Impb inh: -4.4; HNF4A DNA FP: 2.5; Beta2AR agonist: -1

How did Cc1ncoc1C(=O)NC1CCCc2c1cnn2-c1ccc(C(C)(C)C)cc1 (configuration not stated) do in these assays?
Calb FLC: -10; RanGTP-Impb inh: 0.0; HNF4A DNA FP: -2.0; Beta2AR agonist: 21

How did O=C(CSc1nc2cccnc2n1Cc1ccccc1)NC1CCCCC1 do in these assays?
Calb FLC: -7; LANA-H2B inh: 2.2; Vif A3G: 16%; RanGTP-Impb inh: 2.1; ALR H2O2 inh: -13; HNF4A DNA FP: 0.8; Beta2AR agonist: -8

How did CCOC(=O)C1CCN(C(=O)C(C)N(c2ccc(Oc3ccccc3)cc2)S(C)(=O)=O)CC1 (configuration not stated) do in these assays?
Calb FLC: 9; Vif A3G: -11%; RanGTP-Impb inh: 1.9; HNF4A DNA FP: 4.0; Beta2AR agonist: -5

What do the screens show for `Cc1cc(C)nc(SCC(=O)N2CCOCC2)n1`?
Calb FLC: 23; LANA-H2B inh: 1.3; Vif A3G: 6%; RanGTP-Impb inh: 2.0; ALR H2O2 inh: 1; HNF4A DNA FP: 2.5; Beta2AR agonist: -4

What do the screens show for `CC(=O)Nc1ccc(S(=O)(=O)Nc2ccccc2C(=O)N2CCCCCC2)cc1`?
Calb FLC: -2; LANA-H2B inh: 4.1; RanGTP-Impb inh: 1.6; HNF4A DNA FP: -0.8; Beta2AR agonist: 1

What do the screens show for `Cc1cc(C)n(S(=O)(=O)c2ccc3ccccc3c2)n1`?
Calb FLC: 1; LANA-H2B inh: -2.2; Vif A3G: 0%; RanGTP-Impb inh: 0.1; ALR H2O2 inh: 0; HNF4A DNA FP: -1.0; Beta2AR agonist: 0

Retrieved by structure from the list above (3):
Results for COCc1cc(C)nc2sc(C(=O)NC3CCCCC3)c(N)c12 ?
Calb FLC: -11; LANA-H2B inh: -3.6; Vif A3G: -3%; RanGTP-Impb inh: 3.3; ALR H2O2 inh: 2; HNF4A DNA FP: -1.3; Beta2AR agonist: -21

How did Cc1ncoc1C(=O)NC1CCCc2c1cnn2-c1ccc(C(C)(C)C)cc1 (configuration not stated) do in these assays?
Calb FLC: -10; RanGTP-Impb inh: 0.0; HNF4A DNA FP: -2.0; Beta2AR agonist: 21

What do the screens show for `CC(=O)Nc1ccc(S(=O)(=O)Nc2ccccc2C(=O)N2CCCCCC2)cc1`?
Calb FLC: -2; LANA-H2B inh: 4.1; RanGTP-Impb inh: 1.6; HNF4A DNA FP: -0.8; Beta2AR agonist: 1

(list continues)
How did O=C(O)CN1C(=O)C(=O)N(Cc2ccc(C(F)(F)F)cc2)C1=O do in these assays?
Calb FLC: -6; LANA-H2B inh: -3.0; Vif A3G: -1%; RanGTP-Impb inh: -0.6; ALR H2O2 inh: -1; HNF4A DNA FP: -0.7; Beta2AR agonist: -5

What do the screens show for `COc1cc(NC(=O)COc2ccccc2Cl)ccc1NC(=O)C(C)C`?
Calb FLC: -19; LANA-H2B inh: 11; Vif A3G: -3%; RanGTP-Impb inh: -0.9; HNF4A DNA FP: 1.8; Beta2AR agonist: -5

How did O=C(CN1CCN(c2ccccn2)CC1)Nc1cccc(S(=O)(=O)N2CCOCC2)c1 do in these assays?
Calb FLC: 1; LANA-H2B inh: 26*; Vif A3G: 6%; RanGTP-Impb inh: 0.6; ALR H2O2 inh: -3; HNF4A DNA FP: 2.1; Beta2AR agonist: -8

Results for Cc1c(NC(=O)C(C)N(c2ccccc2)S(C)(=O)=O)c(=O)n(-c2ccccc2)n1C (configuration not stated) ?
Calb FLC: 6; LANA-H2B inh: 40*; Vif A3G: 6%; RanGTP-Impb inh: 1.9; ALR H2O2 inh: 9; HNF4A DNA FP: 1.0; Beta2AR agonist: -7

What do the screens show for `O=[N+]([O-])c1ccc(Cl)c(/C=N/N2CCN(Cc3ccc(Cl)cc3)CC2)c1`?
Calb FLC: -26; LANA-H2B inh: 2.9; Vif A3G: -1%; RanGTP-Impb inh: -0.6; ALR H2O2 inh: -4; HNF4A DNA FP: -1.8; Beta2AR agonist: 4

Results for CCCNC(=O)c1ccccc1C(=O)NC1(C(=O)NCCC)CCCC1 ?
Calb FLC: 1; LANA-H2B inh: 4.2; Vif A3G: 27%; RanGTP-Impb inh: -0.3; ALR H2O2 inh: 8; HNF4A DNA FP: 5.1; Beta2AR agonist: -3

What do the screens show for `COc1ccc2c3n([n+]([O-])c2c1)CCN=C3c1ccc(Cl)cc1`?
LANA-H2B inh: -5.8; ALR H2O2 inh: -45; HNF4A DNA FP: 2.5; Beta2AR agonist: -7

What do the screens show for `CC(=O)NC1=NC(=O)/C(=C/c2cc(C)n(-c3cccc(C(=O)O)c3)c2C)S1`?
Calb FLC: -2; Vif A3G: 7.3µM*; RanGTP-Impb inh: 7.9; HNF4A DNA FP: 49*; Beta2AR agonist: -2

Results for Cc1onc(-c2c(F)cccc2Cl)c1C(=O)NCc1ccccc1 ?
Calb FLC: 0; LANA-H2B inh: -0.5; RanGTP-Impb inh: -1.9; ALR H2O2 inh: -17; HNF4A DNA FP: -0.8; Beta2AR agonist: -5

What do the screens show for `COC(=O)c1c(NC(=O)COC(=O)Cn2cnc3ccccc32)sc2c1CCCC2`?
Calb FLC: 20; LANA-H2B inh: 3.7; Vif A3G: 6%; RanGTP-Impb inh: -0.4; ALR H2O2 inh: 24; HNF4A DNA FP: 0.6; Beta2AR agonist: -1

How did CCOC(=O)c1cc(-c2ccccc2)sc1NC(=O)CC(C)C do in these assays?
Calb FLC: 12; LANA-H2B inh: 3.8; Vif A3G: 2%; RanGTP-Impb inh: -8.4; ALR H2O2 inh: 5; HNF4A DNA FP: 5.2; Beta2AR agonist: -9

How did Cc1ccc2nc(-c3ccc(NS(=O)(=O)c4c(C)n(C)c(=O)n(C)c4=O)cc3)sc2c1 do in these assays?
Calb FLC: 34; LANA-H2B inh: -2.0; RanGTP-Impb inh: 2.8; ALR H2O2 inh: 1; HNF4A DNA FP: 5.1; Beta2AR agonist: 8

How did COc1cc2c(cc1OC)C(C(=O)NC1CC1)C1c3ccccc3CCN1C2=O (configuration not stated) do in these assays?
Calb FLC: 2; LANA-H2B inh: -6.4; RanGTP-Impb inh: -1.0; HNF4A DNA FP: 0.9; Beta2AR agonist: 1

Results for COc1cccc2cc(C(=O)N3CCN(c4ccccn4)CC3)c(=O)oc12 ?
Calb FLC: 4; LANA-H2B inh: 1.5; Vif A3G: 4%; RanGTP-Impb inh: 2.7; ALR H2O2 inh: -8; HNF4A DNA FP: 2.9; Beta2AR agonist: -9

What do the screens show for `O=C(CCNS(=O)(=O)c1ccccc1)NCC1CCCCC1`?
Vif A3G: 0%; HNF4A DNA FP: -3.0; Beta2AR agonist: -9

How did Cc1cc(C(=O)CSc2nc3ccccc3c(=O)n2C)c(C)n1CC1CCCO1 (configuration not stated) do in these assays?
Calb FLC: 6; Vif A3G: -4%; RanGTP-Impb inh: -4.2

Results for CC(C)Oc1cccc(C(=O)C2CCCN(S(C)(=O)=O)C2)c1 (configuration not stated) ?
Calb FLC: 1; LANA-H2B inh: 4.1; Vif A3G: 5%; RanGTP-Impb inh: -1.7; ALR H2O2 inh: 1; HNF4A DNA FP: -3.1; Beta2AR agonist: 4

How did O=C(COc1ccc(/C=N/NC(=O)C(=O)N2CCCCC2)cc1)Nc1ccccc1Cl do in these assays?
Calb FLC: 26; LANA-H2B inh: 3.1; Vif A3G: 8%; RanGTP-Impb inh: 1.4; ALR H2O2 inh: -5; HNF4A DNA FP: -2.2; Beta2AR agonist: -4

Results for COc1cc2c(cc1NC(=O)Nc1ccccc1)oc1ccccc12 ?
Calb FLC: 1; LANA-H2B inh: -3.8; Vif A3G: 1%; RanGTP-Impb inh: -1.0; ALR H2O2 inh: -11; HNF4A DNA FP: -1.4; Beta2AR agonist: 4

How did COCCN(C(=O)C1=COCCO1)c1c(N)n(CC(C)C)c(=O)[nH]c1=O do in these assays?
LANA-H2B inh: -0.7; Vif A3G: 2%; ALR H2O2 inh: 1; HNF4A DNA FP: 0.4; Beta2AR agonist: -1

What do the screens show for `Cc1ccc(C(=O)/C=C/Nc2ccc(S(=O)(=O)Nc3onc(C)c3C)cc2)cc1`?
Calb FLC: 0; LANA-H2B inh: 1.2; RanGTP-Impb inh: 0.9; HNF4A DNA FP: -1.6; Beta2AR agonist: 5

Results for COc1ccccc1C(=O)Nc1ccccc1N1CCOCC1 ?
Calb FLC: -2; LANA-H2B inh: 1.3; Vif A3G: 14%; RanGTP-Impb inh: -7.2; ALR H2O2 inh: -3; HNF4A DNA FP: 0.5; Beta2AR agonist: -4

Results for O=C(Nc1nc2ccccc2[nH]1)c1cccs1 ?
Calb FLC: 4; LANA-H2B inh: -1.4; Vif A3G: 0%; RanGTP-Impb inh: 3.3; ALR H2O2 inh: -20; HNF4A DNA FP: -1.4; Beta2AR agonist: -7

Results for Cc1ccccc1OCC(=O)NCC1CCCO1 (configuration not stated) ?
Calb FLC: 2; LANA-H2B inh: -1.0; Vif A3G: 74%; RanGTP-Impb inh: -2.1; ALR H2O2 inh: 9; HNF4A DNA FP: 2.2; Beta2AR agonist: -17

Results for O=C(c1ccccc1)c1ccc(-c2ccc(O)cc2)cc1 ?
Calb FLC: -20; LANA-H2B inh: -1.5; Vif A3G: -1%; RanGTP-Impb inh: -1.7; ALR H2O2 inh: 7; HNF4A DNA FP: -1.3; Beta2AR agonist: -110

What do the screens show for `Cc1ccc(Cl)cc1NC(=O)CCn1cccc1`?
Calb FLC: 2; LANA-H2B inh: 2.9; Vif A3G: 19%; RanGTP-Impb inh: 4.9; HNF4A DNA FP: 2.5; Beta2AR agonist: 8

Results for O=C1C=C(c2cc(F)ccc2F)C[C@@H](c2ccc(Cl)cc2)C1 ?
LANA-H2B inh: 2.6; ALR H2O2 inh: 0; HNF4A DNA FP: 3.7; Beta2AR agonist: -12

How did O=C(C1CCCO1)N1CCN(C(=S)Nc2ccccc2Cl)CC1 (configuration not stated) do in these assays?
Calb FLC: 0; LANA-H2B inh: 0.8; Vif A3G: inconclusive; RanGTP-Impb inh: -2.1; ALR H2O2 inh: -3; HNF4A DNA FP: -0.2; Beta2AR agonist: 0

What do the screens show for `Cc1ccsc1CN(C)CC(=O)Nc1cccc(S(=O)(=O)N(C)c2ccccc2)c1`?
Vif A3G: -8%; HNF4A DNA FP: 0.9; Beta2AR agonist: -4

Bioassay records as filed in PubChem.
